B2AR ag: beta2AR agonists driving receptor internalization, primary screen, cell-based, FAP fluorogen, flow cytometry; Beta-2 adrenergic receptor (Homo sapiens), P07550; Am2.2-beta2AR cells; reference of the scale not given here; response, % (test concentration not listed); 340,000 tested, 0.43% active; AID 504454, 2011;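 active = response above a set limit, near 3 SD of response in nonfluorescent compounds, cut at about 42% in these data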;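 also: stock transfer was 100 nL into about 11 µL; a reference agonist was the positive control; negative values mostly stem from fluorescent compounds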
Target sequence (P07550 whole entry, looked up): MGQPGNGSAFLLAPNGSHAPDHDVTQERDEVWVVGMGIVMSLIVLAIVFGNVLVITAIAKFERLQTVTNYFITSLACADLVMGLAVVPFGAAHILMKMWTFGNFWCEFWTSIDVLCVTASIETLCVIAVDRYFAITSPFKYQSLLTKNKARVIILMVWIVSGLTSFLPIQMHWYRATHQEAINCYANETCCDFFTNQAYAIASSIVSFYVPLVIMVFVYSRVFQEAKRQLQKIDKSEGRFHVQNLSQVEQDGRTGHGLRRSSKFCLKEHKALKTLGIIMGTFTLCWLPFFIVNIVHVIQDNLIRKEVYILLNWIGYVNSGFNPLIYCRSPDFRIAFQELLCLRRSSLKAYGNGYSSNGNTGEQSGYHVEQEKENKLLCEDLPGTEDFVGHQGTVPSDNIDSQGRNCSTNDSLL
Calb FLC: C. albicans growth inhibition with fluconazole, primary screen, CaCi-2 strain, Alamar Blue fluorescence; C. albicans CaCi-2 (fluconazole-resistant clinical isolate) + fluconazole, 48 h; growth inhibition, % (no concentration beside the values); 300,000 tested, 0.57% active;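 active = most replicates above 75%; inconclusive = exactly half above 75%; inactive = most below 75%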;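 also: all wells also contain fluconazole at 8 µg/ml as a sub-toxic cotreatment; 0% = median of DMSO wells and 100% = median of geldanamycin control wells; wells of about 8 µL received 7.5 nL stock; the first replicate is given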
ALR inh: inhibitors of human ALR sulfhydryl oxidase, primary screen, biochemical, H2O2 detection, HRP-luminol luminescence, single point. FAD-linked sulfhydryl oxidase ALR (Homo sapiens), P55789. purified ALR, DTT oxidation. inhibition, % (no concentration beside the values). 290,000 tested, 3.8% active. AID 485317, 2010;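 active = mean and each replicate at 75% or more; inconclusive = only one of the two met; inactive = neither met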;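 also: stock transfer was 7.5 nL into about 7.5 µL; 0% = neutral wells and 100% = wells with inactivated enzyme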
Target sequence (P55789 whole entry, looked up): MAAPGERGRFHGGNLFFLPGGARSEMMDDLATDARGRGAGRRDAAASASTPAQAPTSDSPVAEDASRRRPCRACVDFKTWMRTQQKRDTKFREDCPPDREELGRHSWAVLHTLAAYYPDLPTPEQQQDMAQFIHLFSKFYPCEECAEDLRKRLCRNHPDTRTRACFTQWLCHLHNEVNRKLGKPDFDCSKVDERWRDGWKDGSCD
LANA-H2A inh: blockers of LANA interaction with H2A/H2B – biochemical, FP readout, HTS, primary screen. inhibition, % (concentration not given with the values). cell-free LANA-H2A/H2B peptide, fluorescence polarization. 320,000 tested, 0.6% active; in the data active = inhibition mostly above about 10%, no sharp cut-off; inactive = mostly below about 6.7%;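 also: stock transfer was 7.5 nL into about 10 µL; 0% = median of vehicle wells and 100% = median of positive control wells; one replicate is shown; the record names a cut of 25% in any replicate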
HNF4A DNA FP: change in binding of human HNF4A to DNA, primary screen, biochemical, fluorescence polarization, FITC-DNA; activity change, % at 10 µM; 1 h; Hepatocyte nuclear factor 4-alpha (Homo sapiens), P41235; 360,000 tested, 0.3% active; in the data active = activity change above about 30%, passing the limit was not always enough;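 also: controls were the assay level and a saturating level of protein; the project sought stronger binding though the title names inhibitors; some compounds called inactive have numbers as strong as hits; positive values seem to mean higher polarization but the record does not say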
Target sequence (P41235 whole entry, looked up): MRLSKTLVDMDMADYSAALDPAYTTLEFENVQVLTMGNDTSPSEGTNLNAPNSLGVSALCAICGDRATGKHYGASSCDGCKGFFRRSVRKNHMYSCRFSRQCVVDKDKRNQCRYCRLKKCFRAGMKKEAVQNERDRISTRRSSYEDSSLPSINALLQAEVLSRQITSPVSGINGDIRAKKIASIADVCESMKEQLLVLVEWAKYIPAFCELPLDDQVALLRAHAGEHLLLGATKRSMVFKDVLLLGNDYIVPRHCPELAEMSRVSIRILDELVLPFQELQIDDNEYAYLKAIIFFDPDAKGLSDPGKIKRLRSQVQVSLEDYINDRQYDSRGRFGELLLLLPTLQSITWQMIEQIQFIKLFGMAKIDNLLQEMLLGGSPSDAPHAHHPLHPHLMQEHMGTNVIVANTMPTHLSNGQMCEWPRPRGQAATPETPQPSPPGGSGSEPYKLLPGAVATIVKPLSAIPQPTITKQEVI
RanGTP-Imp inh: inhibitors of RanGTP-importin-beta interaction, primary screen, biochemical, FRET, CFP-Ran, YFP-importin-beta, homogeneous. cell-free CFP-Ran/YFP-importin-beta FRET ratio. Ran GTPase (GTP-bound) - importin-beta complex. 300,000 tested, 1.1% active. inhibition, % (no concentration beside the values);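 active = most replicates above 15%; inconclusive = exactly half above 15%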;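 also: 0% = DMSO wells and 100% = Ran loaded with GDP instead of GTP; wells of about 40 µL received 100 nL stock; the first replicate is given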
Vif TR-FRET: inhibitors of Vif binding to APOBEC3G peptide, primary screen, biochemical, TR-FRET, GST-Vif 1-94, biotin-A3G peptide, dose response retest (AID 1117319) | Virion infectivity factor (Human immunodeficiency virus type 1 group M subtype B (isolate … | TR-FRET GST-Vif / biotin-A3G peptide binding; higher % means a stronger effect; test concentration not given here; strong numbers were not always called active | inhibition, %; hits with a dose series show IC50 in µM | 260,000 tested, 0.57% active;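 active = above the screen mean plus three standard deviations and confirmed in dose response; inconclusive = results disagree or hit not tested in dose response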;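 also: Vif residues 1-94 fused to GST binding biotinylated APOBEC3G peptide 110-148; 0% = full assay without inhibitor and 100% = GST in place of GST-Vif; retest series ran down from 100 µM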
An asterisk follows results filed as active; ? = inconclusive; . = not tested or not shown; & = joins results of further samples.

SMILES	B2AR ag	Calb FLC	ALR inh	LANA-H2A inh	HNF4A DNA FP	RanGTP-Imp inh	Vif TR-FRET
COc1cc(C(=O)Nc2scc(-c3ccccc3)c2C(=O)O)cc(OC)c1OC	13	10	14	5.5	1.9	5.5	-7%
CC(C)(C)NC(=O)C(c1ccncc1)N(C(=O)CNC(=O)c1ccco1)c1ccc2c(c1)OCO2 (stereo not given)	-4	1	-10	-0.8	0.2	-2.0	11µM*
CC(=O)Nc1ccc(S(=O)(=O)Nc2ccc3c(c2)OCO3)cc1	-15	-3	.	6.0	3.4	1.7	-7%
COc1cc(NS(=O)(=O)c2ccc(C)c(C)c2)c(OC)cc1Cl	0	8	-1	1.7	0.8	1.0	1%
CCN(C(=O)CSc1ccc2ccccc2n1)C1CCCCC1	-6	.	-12	2.5	1.4	.	-3%
CC1(O)CC2CC1C(C(=O)O)C2C(=O)O (stereo not given)	-2	.	.	.	-8.6	.	0%
CN1CCN(c2ccc(NC(=O)c3ccc(C(F)(F)F)cc3)cn2)CC1	-6	1	-8	-240	1.5	3.4	2%
Cc1ccc(/C=N/NC(=O)c2cc3ccccc3cc2O)o1	15	47	-49	-4.3	-3.6	-4.9	.
CC(C(=O)Nc1ccc(F)c(F)c1F)N(C)CC(=O)Nc1ccccc1Br (stereo not given)	-1	?	-8	-0.6	-1.3	2.2	13%
O=C(CN1C(=O)c2cccc3cccc1c23)Nc1ccccc1C(=O)NCc1ccco1	9	0	-15	-1.2	-0.9	4.4	2%
CC1(c2nnc(-c3ccccc3)o2)CC(c2cccnc2)=NO1 (stereo not given)	-12	-1	-4	-5.5	-2.1	-3.6	1%
CCC(C)(CCNC(=O)Cc1ccccc1)c1ccccc1OC (stereo not given)	-5	-6	-36	-1.4	-1.0	?	-7%
Cc1c(NC(=O)CN2CCN(c3ccc([N+](=O)[O-])cc3)CC2)c(=O)n(-c2ccccc2)n1C	-7	13	7	-5.8	2.5	2.8	-5%
COc1cc(/C=N/NC(=O)CCN2CCN(c3ccccc3)CC2)cc(OC)c1OC	9	.	93*	0.4	1.8	.	-1%
COCCNC(=O)Cn1c(=O)n(Cc2ccc(C(=O)NCCc3ccc(OC)c(OC)c3)cc2)c(=O)c2ccccc21	2	-1	-11	6.2	0.5	6.9	?
Cc1ccc(CN2C(=O)c3ccccc3C2C(=O)NCc2cccnc2)cc1 (stereo not given)	2	-4	.	-2.9	0.6	8.3	5%
CC1CCCCC1NC(=O)Cn1c(CN2CCCCC2)nc2ccccc2c1=O (stereo not given)	4	4	-2	0.8	15	4.1	3%
Cn1nc(-c2ccccc2)c(CO)c1Sc1ccccc1	-2	-10	4	5.0	2.0	0.0	-1%
Cc1nc(N2CCCCC2C)c2c(C)c(C(=O)Nc3ccccc3C(F)(F)F)sc2n1 (stereo not given)	-1	-7	-1	1.6	0.3	?	3%
O=C(O)c1cccc(NC(=O)C2CC(=O)N(Cc3ccccc3)C2)c1 (stereo not given)	-2	-3	0	-1.1	-1.3	9.8	1%
CCCCNC(=O)CC(=O)Nc1ccccc1C(=O)O	0	3	9	2.0	-3.0	0.3	-11%
c1ccc2sc(Sc3ncnc4sccc34)nc2c1	-2	-13	.	-1.0	2.5	0.7	-78%
CCCc1cc(=O)[nH]c(SCC(=O)N2CCCc3ccccc32)n1	5	3	.	1.5	2.6	-1.5	11%
O=C(Nc1cc(C(=O)N2CCOCC2)cc(C(=O)N2CCOCC2)c1)c1cc(F)c(F)cc1Cl	-5	1	.	2.4	-1.9	1.4	-9%
Cc1c(N)cccc1-n1cccc1	8	2	4	-0.7	-5.0	9.0	0%

A run of entries from the list above, for reference:
SMILES	B2AR ag	Calb FLC	ALR inh	LANA-H2A inh	HNF4A DNA FP	RanGTP-Imp inh	Vif TR-FRET
O=C(CN1C(=O)c2cccc3cccc1c23)Nc1ccccc1C(=O)NCc1ccco1	9	0	-15	-1.2	-0.9	4.4	2%
CC1(c2nnc(-c3ccccc3)o2)CC(c2cccnc2)=NO1 (stereo not given)	-12	-1	-4	-5.5	-2.1	-3.6	1%

Next part:
SMILES	B2AR ag	Calb FLC	ALR inh	LANA-H2A inh	HNF4A DNA FP	RanGTP-Imp inh	Vif TR-FRET
COc1ccc(NC(=O)CS(=O)(=O)c2cn(CC(=O)N3CCOCC3)c3ccccc23)cc1	-6	-5	-8	13	-1.2	2.2	4%
CC[n+]1ccc(C)c2cc(P(=O)(c3ccccc3)c3ccccc3)ccc21	4	13	-18	0.3	0.4	-2.9	3.9µM*
O=C(CC1CCCC1)Nc1ccc(Br)cc1	0	2	-3	-3.5	-2.0	0.5	.
O=C(CSC1=NCCS1)c1ccc(Cl)cc1	10	-3	98*	-0.6	0.5	-0.2	-10%
OCCN(CCO)CC(O)Cn1c2ccccc2c2ccccc21 (stereo not given)	5	8	-13	4.4	7.5	-5.8	10%
CCOC(=O)Cc1csc(NC(=O)CSc2nc3cccnc3n2CC)n1	1	0	?	-0.2	-1.6	0.9	10%
Cc1ccccc1NC(=O)CSc1ccc(-c2cccnc2)nn1	-3	0	-5	-0.9	-0.5	0.6	1%
CCc1nnc(NC(=O)c2oc3cc(C)c(C)cc3c2C)s1	-3	2	-20	15	-0.7	?	1%
Cc1cc(-n2c(SCC(=O)NCCC3=CCCCC3)nc3n[nH]c(C)c3c2=N)ccc1Cl	1	8	-2	-1.6	0.8	0.0	.
CCc1cccc(NC2c3ccccc3C(=O)N2c2ccc(C)cn2)c1 (stereo not given)	-10	-12	-9	-2.8	-0.9	?	-1%
CCc1cc(=O)oc2cc(C)c(CN3CCCC(C)C3)c(O)c12 (stereo not given)	19	-24	2	-11	-1.3	-15	12%&11%
C[C@H](NC(=O)c1ccccc1Cl)C(=O)NCc1cccs1	9	-3	-5	1.9	-1.7	-0.7	-1%
COc1ccc(S(=O)(=O)Cc2ccc(C(=O)N3CCN(c4ccccc4)CC3)o2)cc1	-3	1	89*	-0.5	0.1	-0.6	>100µM*
N#CNC(=Nc1ccc(Cl)cc1)Oc1ccccc1	0	13	-1	-0.9	0.4	6.1	15%
c1ccc(CNc2ncnc3nc[nH]c23)nc1	-1	-11	10	-0.1	-2.2	2.7	7%
CN(C)CCCn1c(SCC(=O)N2CC(=O)Nc3ccccc32)nc2ccccc2c1=O	-7	3	.	1.7	1.9	-3.5	.
COCCc1nnc(NC(=O)C23CC4CC(CC(C4)C2)C3)s1	-5	8	-1	-7.5	-1.9	-1.0	-5%
Cc1cccc(NC(=O)c2nc[nH]c2C(=O)N[C@@H](Cc2ccccc2)C(=O)OC(C)(C)C)c1	1	5	-3	-6.6	-6.7	-4.0	0%
O=C(c1cccc(C(F)(F)F)c1)C1CCCN(C(=O)CN2CCCC2=O)C1 (stereo not given)	-7	14	-6	1.5	8.1	2.2	-5%
Cc1c(C(=O)N/N=C/C(C)C)[nH]c2c([N+](=O)[O-])cccc12	-5	11	4	1.9	0.1	-0.3	.
Cc1ccc(/C=N/n2c(C)nc3ccccc3c2=O)o1	-3	3	.	4.7	1.0	?	1%
O=C(NNC(=O)c1nn(-c2ccc(F)cc2)ccc1=O)c1ccccc1Cl	-20	-2	-2	-8.4	-0.3	-2.2	?
CCNC(=S)N1CCN(CC(=O)Nc2ccc(OC)cc2)CC1	3	-13	-3	2.3	0.1	2.6	31%
O=C(O)C1CCCCN1S(=O)(=O)c1ccc2ccccc2c1 (stereo not given)	0	-6	-6	-5.2	1.7	2.6	2%
Cc1cc(C(=O)COC(=O)c2ccc(N)c([N+](=O)[O-])c2)c(C)n1Cc1ccc2c(c1)OCO2	-3	-5	-14	14	4.5	-1.0	-10%
Other structures:
SMILES	B2AR ag	Calb FLC	ALR inh	LANA-H2A inh	HNF4A DNA FP	RanGTP-Imp inh	Vif TR-FRET
Nc1ncnc2c1ncn2[C@@H]1O[C@H](CNS(=O)(=O)c2cc(S(=O)(=O)c3ccccc3)cs2)[C@@H](O)[C@H]1O	-6	.	.	.	-0.6	.	3%
CC(CCc1ccccc1)NS(=O)(=O)c1ccc(Cl)c(C(=O)O)c1 (stereo not given)	3	1	4	-2.6	-0.8	-1.7	.
CCNC(=S)Nc1ccc(Cc2ccncc2)cc1	-13	-2	-2	-1.4	3.7	-2.9	-6%
CCN(c1ccccc1)c1nc2nonc2nc1NCCO	6	12	-9	-3.2	7.2	3.4	4%
CCOC(CNC(=O)CCc1c(C)nc2ncnn2c1C)OCC	1	-4	-7	2.0	0.9	4.2	-1%
O=C(/C=C/c1ccc2c(c1)OCO2)c1cccnc1	3	-13	0	-5.9	0.3	-2.8	-2%
Cc1cc(-n2cnnn2)ccc1C(C)C	2	16	-3	3.2	0.9	6.2	-6%
O=S(=O)(Nc1cccnc1)c1cc(Cl)ccc1Cl	6	0	2	-2.2	2.7	-4.1	1%
Oc1c(Cl)cc(Cl)cc1CNc1nc2ccccc2[nH]1	6	-2	99*	4.3	8.8	-0.1	.
CCOC(=O)CSc1nc(C)nc2c1sc1nc(C)c(C(C)=O)c(-c3ccc(OC)cc3)c12	8	-8	1	5.3	1.0	-5.6	-95%
Cc1ccc(C)c(NC(=S)NNc2ccc(F)cc2F)c1	4	-18	?	0.0	1.2	1.2	.
NNC(=O)[C@H]1C[C@@H]1c1ccccc1	-3	14	.	4.8	-1.9	2.7	-2%
O=C(COC(=O)CCC(=O)c1cccs1)NC1CC1	4	-4	-1	-1.2	4.0	?	-5%
COc1ccc(S(=O)(=O)n2ccnc2)c2cccnc12	6	-2	-2	4.3	-0.4	-3.0	5%
CC(=O)c1ccc(N2CCN(c3ccc(C(N)=O)cc3[N+](=O)[O-])CC2)cc1	6	-7	-7	-5.3	1.5	?	16%
COc1ccc(N2CCN(S(=O)(=O)CCNC(=O)C(C)Oc3ccccc3)CC2)cc1 (stereo not given)	-6	-6	26	1.4	-3.0	3.3	-7%
CC1CC(Nc2ccccc2)=CC(=O)O1 (stereo not given)	-1	-1	-4	0.1	-1.5	5.4	2%
COc1ccc(C(=O)C2CCCN(Cc3cc(C)c(O)c(C)c3)C2)c(OC)c1 (stereo not given)	-2	-2	16	3.4	1.5	3.3	.
CCOC(=O)CC1(C)SC(NC(C)=O)=NN1C(C)=O (stereo not given)	-7	1	-2	-1.2	-3.0	-1.7	.
C=CCc1c(C)nc(SCc2ccccc2)[nH]c1=O	-1	5	-1	-0.5	-1.8	4.1	-4%
O=C(CCn1nnnc1CN1CCOCC1)N1CCC(c2cccc(Cl)c2)C1 (stereo not given)	19	0	-3	1.7	-2.0	-3.7	0%
COc1ccc(S(=O)(=O)N2CCc3ccccc32)cc1C(=O)OCC(=O)c1c(N)n(C)c(=O)n(C)c1=O	3	2	.	.	2.6	-0.5	.
COCc1cc(C)nc(SCC(=O)Nc2ccccc2C)c1C#N	-4	3	-3	0.5	-1.0	-1.6	-30%
CCOC(=O)c1cc(-c2nnc(-c3ccc(Cl)cc3)o2)c(C)nc1C	-10	1	-13	1.4	2.9	-0.1	3%
CC(=O)Nc1cc2c(cc1[N+](=O)[O-])-c1ccccc1C2=NO	-1	.	.	.	-1.6	.	-4%
CN(C)c1ccc2c(=O)[nH][nH]c(=O)c2c1	-10	11	6	-3.2	14	3.5	14%
C=CCOc1ccc(/C=C/C(C)=N\O)cc1	-5	-14	15	-6.7	0.0	-1.7	-3%
COc1ccc(CC(=O)Nc2ccc(S(=O)(=O)Nc3onc(C)c3C)cc2)cc1OC	5	20	.	5.3	-2.5	-0.9	.
Cc1ccc(-c2csc3ncnc(N4CCN(C(=O)c5ccco5)CC4)c23)cc1	2	.	5	0.2	-1.2	.	1%

Bioassay records (PubChem BioAssay)
